Ran FRET: inhibitors of Ran–importin-beta complex formation, primary screen, biochemical, CFP-Ran/YFP-importin-beta FRET, RCC1, cell-free (AID 434961) | 7,700 tested, 0.2% active | inhibition, % | CFP-Ran/YFP-importin-beta FRET, cell-free; hits give high values;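 active means more than half of the replicate wells above 15% inhibition; inconclusive means exactly half above it; inactive means fewer than half above it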;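 further: 0% = DMSO wells and 100% inhibition = RanGDP control wells on each plate; stock of unstated strength diluted about 400-fold; mean of two wells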
Numbers without * were called inactive; ? = inconclusive.

SMILES | Ran FRET
C[C@@H]1CN([C@H](C)CO)C(=O)c2cc(NS(C)(=O)=O)ccc2O[C@@H](C)CCCCO[C@@H]1CN(C)Cc1ccncc1 | 30*
C[C@H]1CCCCO[C@@H](CN(C)C)[C@@H](C)CN([C@@H](C)CO)C(=O)c2cc(NC(=O)Nc3ccc(C(F)(F)F)cc3)ccc2O1 | 1.7
C[C@@H]1CN([C@H](C)CO)C(=O)c2cc(NC(=O)Nc3ccc4c(c3)OCO4)ccc2O[C@H]1CN(C)C(=O)Nc1ccc(F)cc1 | -3.2
COc1ccc(S(=O)(=O)N(C)C[C@H]2Oc3c(NS(=O)(=O)c4cn(C)cn4)cccc3C(=O)N([C@H](C)CO)C[C@@H]2C)cc1 | 7.8
C[C@H]1CN([C@@H](C)CO)C(=O)CCCn2nncc2CO[C@H]1CN(C)Cc1ccc(C(F)(F)F)cc1 | 3.4
C[C@H](CO)N1C[C@H](C)[C@H](CN(C)C(=O)NC2CCCCC2)Oc2ccc(NC(=O)Nc3ccccc3)cc2CC1=O | 2.4
C[C@@H]1CCCCO[C@@H](CN(C)C)[C@@H](C)CN([C@H](C)CO)C(=O)c2cc(NC(=O)Nc3ccc(F)cc3)ccc2O1 | -0.3
CNC[C@@H]1OCCCC[C@H](C)Oc2ccc(NC(=O)Nc3cccc4ccccc34)cc2C(=O)N([C@@H](C)CO)C[C@H]1C | -2.9
C[C@@H]1CN([C@H](C)CO)C(=O)c2cc(NC(=O)c3ccncc3)ccc2O[C@@H](C)CCCCO[C@H]1CN(C)S(=O)(=O)c1ccc(F)cc1 | 0.6
C[C@@H]1CN([C@@H](C)CO)C(=O)Cc2cc(NC(=O)Cn3cnnn3)ccc2O[C@H]1CN(C)C(=O)Nc1ccccc1 | -3.0
COc1ccc(CN(C)C[C@@H]2Oc3c(NC(=O)NC4CCCCC4)cccc3C(=O)N([C@@H](C)CO)C[C@@H]2C)cc1 | 5.1
Cc1noc(C)c1S(=O)(=O)Nc1ccc2c(c1)C(=O)N([C@H](C)CO)C[C@@H](C)[C@@H](CN(C)C(=O)Nc1ccc3c(c1)OCO3)O2 | 2.6
C[C@H](CO)N1C[C@H](C)[C@H](CN(C)Cc2ccc(Cl)c(Cl)c2)Oc2c(NS(=O)(=O)c3cn(C)cn3)cccc2C1=O | 0.0
Cc1noc(C)c1NC(=O)Nc1ccc2c(c1)C(=O)N([C@@H](C)CO)C[C@H](C)[C@@H](CN(C)C(=O)CCCN(C)C)OCCCC[C@H](C)O2 | 0.6
C[C@@H]1CN([C@H](C)CO)C(=O)c2cc(NC(=O)CCC(F)(F)F)ccc2O[C@@H](C)CCCCO[C@H]1CN(C)S(=O)(=O)c1ccccc1 | -4.4
C[C@H](CO)N1C[C@H](C)[C@H](CN(C)Cc2ccc(C(=O)O)cc2)OCCCC[C@H](C)Oc2ccc(NC(=O)C3CCCCC3)cc2C1=O | -0.4
C[C@@H]1CN([C@@H](C)CO)C(=O)c2cc(NC(=O)c3ccncc3)ccc2O[C@@H](C)CCCCO[C@@H]1CN(C)C(=O)CCCN(C)C | 6.7
C[C@@H]1CN([C@@H](C)CO)C(=O)c2cccc(NC(=O)c3nc4ccccc4s3)c2O[C@H]1CN(C)CC1CC1 | -3.0
C[C@H]1CN([C@@H](C)CO)C(=O)c2cc(NS(=O)(=O)c3ccccc3)ccc2O[C@H]1CN(C)C(=O)NC1CCCCC1 | 0.0
C[C@H](CO)N1C[C@H](C)[C@@H](CN(C)S(=O)(=O)c2cccs2)Oc2c(NS(C)(=O)=O)cccc2C1=O | -4.4
C[C@H](CO)N1C[C@H](C)[C@H](CN(C)C(=O)Cc2ccccc2)OCc2cn(nn2)CCCC1=O | 8.8
COc1ccc(CN(C)C[C@H]2Oc3ccc(NC(=O)NC4CCCCC4)cc3C(=O)N([C@H](C)CO)C[C@@H]2C)cc1 | 0.4
CNC[C@H]1OCCCC[C@@H](C)Oc2ccc(NS(=O)(=O)c3cccs3)cc2C(=O)N([C@H](C)CO)C[C@H]1C | -1.4
COc1ccc(CN(C)C[C@H]2Oc3c(NC(=O)c4cnccn4)cccc3C(=O)N([C@H](C)CO)C[C@@H]2C)cc1 | 1.4
C[C@H](CO)N1C[C@H](C)[C@H](CN(C)S(=O)(=O)c2cn(C)cn2)Oc2ccc(NC(=O)Nc3ccc4c(c3)OCO4)cc2C1=O | 4.0

Random excerpt: 3 records from the list.
SMILES | Ran FRET
C[C@@H]1CN([C@H](C)CO)C(=O)c2cc(NC(=O)CCC(F)(F)F)ccc2O[C@@H](C)CCCCO[C@H]1CN(C)S(=O)(=O)c1ccccc1 | -4.4
C[C@H](CO)N1C[C@H](C)[C@H](CN(C)C(=O)NC2CCCCC2)Oc2ccc(NC(=O)Nc3ccccc3)cc2CC1=O | 2.4
C[C@H]1CCCCO[C@@H](CN(C)C)[C@@H](C)CN([C@@H](C)CO)C(=O)c2cc(NC(=O)Nc3ccc(C(F)(F)F)cc3)ccc2O1 | 1.7

Carrying on.
SMILES | Ran FRET
CC(C)NC(=O)N(C)C[C@H]1OCCCC[C@H](C)Oc2ccc(N(C)C)cc2C(=O)N([C@@H](C)CO)C[C@H]1C | -1.0
C[C@@H]1CN([C@H](C)CO)C(=O)c2cc(N(C)C)ccc2O[C@@H]1CN(C)C(=O)Nc1ccc(F)cc1 | -3.5
CC(C)NC(=O)Nc1ccc2c(c1)C(=O)N([C@@H](C)CO)C[C@H](C)[C@@H](CN(C)S(=O)(=O)c1ccccc1)OCCCC[C@H](C)O2 | 1.7
C[C@H](CO)N1C[C@H](C)[C@H](CN(C)C(=O)Nc2ccccc2)Oc2c(NS(C)(=O)=O)cccc2C1=O | 0.8
C[C@H](CO)N1C[C@H](C)[C@@H](CN(C)Cc2ccncc2)Oc2ccc(NC(=O)NC3CCCCC3)cc2CC1=O | -1.1
CNC[C@@H]1Oc2c(NS(=O)(=O)c3cccs3)cccc2C(=O)N([C@@H](C)CO)C[C@@H]1C | -5.3
C[C@@H]1CCCCO[C@@H](CN(C)C(=O)C2CCCCC2)[C@@H](C)CN([C@@H](C)CO)C(=O)c2cc(NS(C)(=O)=O)ccc2O1 | -4.6
COc1ccccc1CN(C)C[C@@H]1OCc2cnnn2CCCC(=O)N([C@@H](C)CO)C[C@@H]1C | 3.5
C[C@@H]1CN([C@H](C)CO)C(=O)Cc2cc(NC(=O)C3CC3)ccc2O[C@@H]1CN(C)C(=O)Nc1cccc2ccccc12 | -3.1
COc1ccc(CN(C)C[C@H]2Oc3ccc(NC(=O)Nc4ccc(C(F)(F)F)cc4)cc3C(=O)N([C@H](C)CO)C[C@@H]2C)cc1 | -3.7
Cc1noc(C)c1NC(=O)N(C)C[C@H]1Oc2ccc(NS(=O)(=O)c3cn(C)cn3)cc2C(=O)N([C@H](C)CO)C[C@@H]1C | ?
CNC[C@H]1Oc2ccc(NC(=O)c3ccncc3)cc2CC(=O)N([C@@H](C)CO)C[C@H]1C | -2.7
C[C@H](CO)N1C[C@H](C)[C@H](CN(C)C)OCCCC[C@H](C)Oc2ccc(NC(=O)CCC(F)(F)F)cc2C1=O | ?
C[C@H](CO)N1C[C@H](C)[C@H](CN(C)S(=O)(=O)c2cn(C)cn2)Oc2c(NC(=O)C3CCOCC3)cccc2C1=O | 0.6
CC(C)NC(=O)N(C)C[C@H]1OCCCC[C@H](C)Oc2ccc(NC(=O)c3ccncc3)cc2C(=O)N([C@@H](C)CO)C[C@@H]1C | 6.9
Cc1noc(C)c1S(=O)(=O)N(C)C[C@@H]1Oc2c(NS(=O)(=O)c3ccc(F)cc3)cccc2C(=O)N([C@H](C)CO)C[C@@H]1C | 2.5
COc1ccc(NC(=O)N(C)C[C@@H]2Oc3ccc(NS(=O)(=O)c4ccccc4)cc3C(=O)N([C@@H](C)CO)C[C@H]2C)cc1 | 4.5
Cc1noc(C)c1S(=O)(=O)N(C)C[C@@H]1OCc2cnnn2CCCC(=O)N([C@@H](C)CO)C[C@@H]1C | -3.4
C[C@@H]1CCCCO[C@@H](CN(C)Cc2ccncc2)[C@@H](C)CN([C@@H](C)CO)C(=O)c2cc(NC(=O)Nc3ccccc3)ccc2O1 | ?
COc1ccc(NC(=O)N(C)C[C@@H]2Oc3ncc(C#CCN(C)C)cc3C(=O)N([C@H](C)CO)C[C@@H]2C)cc1 | 3.2
Cc1noc(C)c1NC(=O)Nc1ccc2c(c1)C(=O)N([C@@H](C)CO)C[C@H](C)[C@@H](CN(C)C(=O)CCCN(C)C)OCCCC[C@@H](C)O2 | 0.3
Cc1noc(C)c1NC(=O)N(C)C[C@@H]1OCCCC[C@H](C)Oc2ccc(N(C)C)cc2C(=O)N([C@H](C)CO)C[C@@H]1C | 3.9
C[C@@H]1CN([C@@H](C)CO)C(=O)c2cc(NS(=O)(=O)c3cn(C)cn3)ccc2O[C@H]1CN(C)C(=O)Nc1ccc2c(c1)OCO2 | 4.1
Cc1noc(C)c1S(=O)(=O)N(C)C[C@@H]1OCCCC[C@@H](C)Oc2ccc(NC(=O)NC(C)C)cc2C(=O)N([C@H](C)CO)C[C@@H]1C | 0.8
Cc1noc(C)c1NC(=O)N(C)C[C@@H]1OCCCC[C@H](C)Oc2ccc(N(C)C)cc2C(=O)N([C@H](C)CO)C[C@H]1C | 0.5

The results go on.
SMILES | Ran FRET
C[C@@H]1CCCCO[C@@H](CN(C)C(=O)C2CCCCC2)[C@H](C)CN([C@@H](C)CO)C(=O)c2cc(NC(=O)Nc3ccccc3)ccc2O1 | 7.3
C[C@H]1CN([C@@H](C)CO)C(=O)Cc2cc(NS(=O)(=O)c3ccccc3)ccc2O[C@H]1CN(C)C(=O)Nc1ccc2c(c1)OCO2 | 1.5
C[C@@H]1CN([C@H](C)CO)C(=O)c2cc(NC(=O)CCCN(C)C)ccc2O[C@@H](C)CCCCO[C@@H]1CN(C)Cc1ccc2c(c1)OCO2 | -0.8
C[C@@H]1CN([C@H](C)CO)C(=O)c2cccc(NC(=O)c3nc4ccccc4s3)c2O[C@H]1CN(C)C(=O)Nc1ccccc1 | -2.1
C[C@H]1CCCCO[C@H](CN(C)C(=O)c2ccccc2)[C@@H](C)CN([C@@H](C)CO)C(=O)c2cc(NS(=O)(=O)c3ccccc3)ccc2O1 | -3.3
COc1ccc(CN(C)C[C@H]2Oc3ccc(NC(=O)Cn4cnnn4)cc3CC(=O)N([C@@H](C)CO)C[C@@H]2C)cc1 | -1.5
C[C@H]1CN([C@@H](C)CO)C(=O)c2cc(NC(=O)c3ccncc3)ccc2O[C@@H]1CN(C)C(=O)Nc1ccc(F)cc1 | -4.6
C[C@H]1CCCCO[C@H](CN(C)C(=O)Nc2cccc3ccccc23)[C@@H](C)CN([C@@H](C)CO)C(=O)c2cc(N(C)C)ccc2O1 | 4.9
C[C@H](CO)N1C[C@H](C)[C@H](CN(C)C(=O)NC2CCCC2)Oc2ncc(-c3ccc(F)cc3)cc2C1=O | ?
COc1ccc(CN(C)C[C@@H]2Oc3ccc(NC(=O)Nc4ccc(C(F)(F)F)cc4)cc3C(=O)N([C@@H](C)CO)C[C@H]2C)cc1 | 0.6
C[C@@H]1CCCCO[C@@H](CN(C)Cc2ccccc2)[C@@H](C)CN([C@@H](C)CO)C(=O)c2cc(NS(=O)(=O)c3cn(C)cn3)ccc2O1 | 6.6
Cc1noc(C)c1NC(=O)Nc1ccc2c(c1)CC(=O)N([C@@H](C)CO)C[C@H](C)[C@H](CN(C)C)O2 | -1.0
Cc1cc(C(=O)Nc2cccc3c2O[C@@H](CN(C)S(=O)(=O)c2cccs2)[C@H](C)CN([C@H](C)CO)C3=O)n(C)n1 | 3.3
C[C@@H]1CN([C@H](C)CO)C(=O)c2cc(NC(=O)Nc3ccccc3)ccc2O[C@H]1CN(C)C(=O)NC1CCCCC1 | -0.7
C[C@@H]1CCCCO[C@H](CN(C)C(=O)Nc2ccccc2)[C@H](C)CN([C@@H](C)CO)C(=O)c2cc(NC(=O)C3CCCCC3)ccc2O1 | -0.7
Cc1noc(C)c1S(=O)(=O)Nc1cccc2c1O[C@@H](CN(C)Cc1ccc(Cl)c(Cl)c1)[C@@H](C)CN([C@@H](C)CO)C2=O | 0.6
CC(C)NC(=O)Nc1ccc2c(c1)C(=O)N([C@@H](C)CO)C[C@H](C)[C@@H](CN(C)C(=O)CCCN(C)C)OCCCC[C@@H](C)O2 | 0.9
C[C@H]1CCCCO[C@H](CN(C)S(=O)(=O)c2ccccc2)[C@@H](C)CN([C@@H](C)CO)C(=O)c2cc(NS(C)(=O)=O)ccc2O1 | -1.0
Cc1noc(C)c1S(=O)(=O)N(C)C[C@@H]1Oc2ccc(N(C)C)cc2CC(=O)N([C@H](C)CO)C[C@H]1C | 1.4
CNC[C@H]1OCCCC[C@H](C)Oc2ccc(NC(=O)c3ccncc3)cc2C(=O)N([C@@H](C)CO)C[C@@H]1C | 3.1
Cc1noc(C)c1S(=O)(=O)Nc1cccc2c1O[C@@H](CN(C)C(=O)Nc1ccccc1)[C@@H](C)CN([C@@H](C)CO)C2=O | ?
COc1ccc(S(=O)(=O)Nc2ccc3c(c2)C(=O)N([C@H](C)CO)C[C@H](C)[C@@H](CN(C)Cc2ccc(C(=O)O)cc2)O3)cc1 | -0.7

Part of the list above, in markdown.
| Molecule | Ran FRET |
| --- | --- |
| CNC[C@H]1OCCCC[C@H](C)Oc2ccc(NC(=O)c3ccncc3)cc2C(=O)N([C@@H](C)CO)C[C@@H]1C | 3.1 |
| C[C@H]1CCCCO[C@H](CN(C)C(=O)Nc2cccc3ccccc23)[C@@H](C)CN([C@@H](C)CO)C(=O)c2cc(N(C)C)ccc2O1 | 4.9 |
| C[C@H]1CCCCO[C@H](CN(C)S(=O)(=O)c2ccccc2)[C@@H](C)CN([C@@H](C)CO)C(=O)c2cc(NS(C)(=O)=O)ccc2O1 | -1.0 |
| C[C@@H]1CN([C@H](C)CO)C(=O)c2cc(NC(=O)CCCN(C)C)ccc2O[C@@H](C)CCCCO[C@@H]1CN(C)Cc1ccc2c(c1)OCO2 | -0.8 |
| Cc1noc(C)c1S(=O)(=O)N(C)C[C@@H]1Oc2ccc(N(C)C)cc2CC(=O)N([C@H](C)CO)C[C@H]1C | 1.4 |
| Cc1noc(C)c1NC(=O)Nc1ccc2c(c1)CC(=O)N([C@@H](C)CO)C[C@H](C)[C@H](CN(C)C)O2 | -1.0 |
| COc1ccc(CN(C)C[C@H]2Oc3ccc(NC(=O)Cn4cnnn4)cc3CC(=O)N([C@@H](C)CO)C[C@@H]2C)cc1 | -1.5 |

Screens: PubChem BioAssay, Broad Institute

A portion of the library; count on the stated rates, not on these rows.
